D2 potentiator: human D2 receptor positive allosteric modulation; potentiation, % (no concentration beside the values); P14416; actives 0.23% (n = 360,000); DiscoveRx D2 beta-arrestin cells, luminescence, 90 min; 100% = 57 uM dopamine signal; active = potentiation of 50% or more; inconclusive = 30% to 50%; inactive = 30% or less;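 also: compound concentration not given in the record; tested on top of an EC20 dose of dopamine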
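PathHunter D2 cells, attached overnight at 37 deg C, received compound in DMSO plus dopamine at EC20 (50 nM final) for 90 min at 37 deg C. Beta-arrestin recruitment was read as luminescence after 1 h with detection reagent at ambient temperature.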
D2 ag: activates the human D2 dopamine receptor | P14416 | DiscoveRx PathHunter D2 beta-arrestin, luminescence, 90 min; 100% = 57 uM dopamine signal | actives 0.084% (n = 360,000) | activation, % (test concentration not listed); in the data active = activation above about 40%; inconclusive = about 15% to 40%; inactive = below about 15%; also: compound concentration not given in the record; the text of the record calls up to 30% inactive
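Agonist mode: compounds alone added to overnight-plated D2 PathHunter cells for 90 min at 37 C, with 57 uM final dopamine (EC100) defining full response. Beta-arrestin recruitment detected by chemiluminescent reagent, read after 1 h at ambient temperature.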
Six1-Eya2 blk: Six1/Eya2 interaction inhibition. Q15475+O00167. AlphaScreen GST-Six1/His-Eya2 binding, biochemical; hits give low values; control for the full effect not named in the record. activity change, % (no concentration beside the values). actives 0.56% (n = 360,000); in the data active = activity change below about -65%; inconclusive = about -30% to -65%; inactive = above about -30%; also: % is scaled to controls: 0 for no effect and ±100 for the full control effect; compound concentration not given in the record
Target sequence (O00167 whole entry, looked up): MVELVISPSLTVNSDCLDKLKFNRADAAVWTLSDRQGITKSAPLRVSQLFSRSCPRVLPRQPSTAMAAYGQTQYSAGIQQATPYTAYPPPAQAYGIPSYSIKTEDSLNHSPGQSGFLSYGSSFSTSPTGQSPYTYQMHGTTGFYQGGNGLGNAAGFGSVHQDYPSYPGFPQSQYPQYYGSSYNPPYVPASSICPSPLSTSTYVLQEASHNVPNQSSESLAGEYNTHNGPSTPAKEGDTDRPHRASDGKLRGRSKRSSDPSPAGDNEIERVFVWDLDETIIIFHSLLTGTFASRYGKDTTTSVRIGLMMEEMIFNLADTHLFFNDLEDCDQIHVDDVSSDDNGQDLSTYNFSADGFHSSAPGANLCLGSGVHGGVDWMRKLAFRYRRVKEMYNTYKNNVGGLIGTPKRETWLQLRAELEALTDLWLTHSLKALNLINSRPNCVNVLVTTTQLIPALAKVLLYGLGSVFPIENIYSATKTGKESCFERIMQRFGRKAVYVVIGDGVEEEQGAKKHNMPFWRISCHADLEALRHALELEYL
Target sequence (Q15475 whole entry, looked up): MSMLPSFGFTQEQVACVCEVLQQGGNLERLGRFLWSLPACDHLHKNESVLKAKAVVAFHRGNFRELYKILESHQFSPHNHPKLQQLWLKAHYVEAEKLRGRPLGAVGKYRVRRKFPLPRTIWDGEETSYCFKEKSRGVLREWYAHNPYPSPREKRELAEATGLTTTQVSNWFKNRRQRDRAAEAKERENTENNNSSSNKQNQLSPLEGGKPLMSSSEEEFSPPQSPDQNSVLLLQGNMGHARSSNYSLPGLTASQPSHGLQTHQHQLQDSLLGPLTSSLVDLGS
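AlphaScreen luminescence read after one hour at 37 °C in darkness. Pin-transferred compounds met GST-Six1 and His-Eya2 protein (5X stock 250 nM/500 nM) plus glutathione donor and Ni-chelate acceptor beads (5X, 50 ug/mL).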
gsp ag: activates gsp, the McCune-Albright syndrome mutation; actives 0.13% (n = 340,000); Potency, µM (series often up to 76.9 µM), inactives show at the top dose activation (cAMP increase), usual class: activators; gsp mutant cells, cAMP HTRF, 30 min; control for the full effect not named in the record; AID 624287; active = well fitted activation curve with a large enough effect; inconclusive = small, poorly fitted or top-dose-only effect, or another doubt; inactive = no such curve, though single readings can be large or run the other way; cell line not stated here;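 also: phosphodiesterase inhibitor Ro 20-1724 added with compounds to block cAMP breakdown; potency is read from the fitted curve at half-maximal effect; nearly all actives have a fitted effect of over 60% in size; about a fifth of the inactives were tested at one dose only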
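Cells in DMEM/10% FBS with G418 were pretreated with compounds in DMSO plus […] (300 uM stock) for 30 min at 37C. cAMP was measured by HTRF (cAMP-d2 plus anti-cAMP antibody-K) after 30 min at room temperature.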
CtBP-E1A inh: inhibitors of CtBP/E1A interaction; AlphaScreen GST-E1A/His-CtBP binding, 1536-well; hits give low values; control for the full effect not named in the record; activity change, % (concentration not given with the values); actives 0.49% (n = 340,000); AID 651724; in the data active means activity change below about -65%; inconclusive means about -30% to -65%; inactive means above about -30%; also: % is scaled to controls: 0 for no effect and ±100 for the full control effect
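Protein mix (5X: 125 nM each GST-E1A, His-CtBP) was incubated with pinned compound 2 h at 37 deg C in dark, in 50 mM Tris pH 8.0 buffer with 300 mM NaCl. Glutathione donor and nickel acceptor beads followed; AlphaScreen signal read after 1 h.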
gsp antagonist: antagonists of gsp mutant (McCune-Albright syndrome). gsp-mutant cells, cAMP HTRF, 30 min; control for the full effect not named in the record. Potency, µM (series often up to 76.9 µM), for the others: top-dose activity change, negative = inhibition, most hits filed as inhibitors. actives 0.4% (n = 340,000). AID 624288; active = falling curve of any shape with a large fitted effect; inconclusive = falling curve, mostly with a smaller effect; inactive = flat or rising curve; cell line not stated here;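 also: intracellular cAMP measured with PDE inhibitor Ro 20-1724 present during compound exposure; potency is read from the fitted curve at half-maximal effect; % is scaled to controls: 0 for no effect and ±100 for the full control effect; nearly all actives have a fitted effect of over 65% in size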
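HTRF cAMP measurement after 30 min RT detection following 30 min, 37C compound treatment alongside […] (added as 300 uM solution) in G418-selected cells seeded at 2000/well and grown 16–24 h.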
Starred values were filed as active, the others as inactive; ? = inconclusive; / = not tested or not shown; [ ] = remark or other dose.

Order of results – gsp ag	gsp antagonist	D2 potentiator	Six1-Eya2 blk	D2 ag	CtBP-E1A inh
1: COC(=O)c1ccccc1NC(=O)CSc1nnc(-c2cccnc2)n1N
 : -5.4%[15.4 µM]	4.7%	-1.5	8.4	-2.3	0.0
2: Cc1cc2c(cc1S(=O)(=O)NCC(C)c1ccccc1)n(C)c(=O)c(=O)n2C (configuration not stated)
 : ?	-1.0%	-0.2	0.3	2.2	1.4
3: Nc1c(-c2ccc(Cl)cc2)cnn1-c1ccccc1
 : -61.7%[inhibitor]	0.9%	-10.0	3.8	2.4	7.0
4: CCOC(=O)C1=C(CN2CCOCC2)NC(=O)NC1c1cc(C)ccc1C (configuration not stated)
 : -11.4%	-11.4%	-5.2	-0.1	-0.7	2.9
5: O=C(Nc1ccc(Cc2ccc(NC(=O)Nc3cccnc3)cc2)cc1)Nc1cccnc1
 : -33.8%[inhibitor]	/	-1.0	-3.3	-3.3	4.0
6: O=C(N/N=C/c1ccccc1)c1ccc(-c2ccccc2)cc1
 : -18.3%	-11.8%	-1.4	3.4	2.9	0.2
7: Cc1cccc(NC(=O)CSc2nnc(NC(=O)C3CCC3)s2)c1
 : -10.0%[15.4 µM]	-9.1%	-4.1	-0.7	1.1	6.2
8: Cc1ncc([N+](=O)[O-])n1Cc1ccc(Cl)cc1
 : ?	-12.3%	-5.0	-0.1	-1.4	-2.8
9: CCCCOC(=O)c1ccc(NC(=O)COC(=O)CN2C(=O)NC3(CCCC3)C2=O)cc1
 : 22.3%[15.4 µM]	-7.1%	-7.0	-4.5	0.2	-3.2
10: COc1ccc(/C=C/c2nc3sc4c(c3c(=O)o2)CCC4)cc1
 : -20.2%	26.0%	12.4	6.8	-3.4	3.6
11: CCOc1ccc(NC(=O)Cn2cc(C(=O)C3CC3)c3ccccc32)cc1
 : -10.1%	4.1%	-4.0	10.5	-7.2	1.9
12: COc1cccc(CN(C)C(=O)c2ccc(OCC(=O)Nc3cccc(C(F)(F)F)c3)c(OC)c2)c1
 : -26.7%	?	21.2	-3.0	-1.0	3.7
13: CCCCN(C)CCNC(=O)c1cc2cc3ccc(OC)cc3nc2o1
 : 3.8%	4.8%	-8.5	-13.7	-5.9	/
14: CCCCOc1ccc(C2(C(=O)O)CCCC2)cc1
 : 0.1%	9.5%[15.4 µM]	-25.0	4.4	-0.9	12.4
15: CCCN1CCc2c(sc(NC(=O)CCS(=O)(=O)c3ccccc3)c2C(N)=O)C1
 : ?	-1.8%	-6.6	-7.0	1.0	3.9
16: CCCOc1ccc(Cn2c(C)nc([N+](=O)[O-])c2SCC(O)COC)cc1[N+](=O)[O-] (configuration not stated)
 : -35.6%[inhibitor]	9.1%	-1.7	6.1	-0.7	-3.4
17: CC(C)OC(=O)NCCOC(=O)Nc1ccccc1Cl
 : 11.3%	3.4%	-3.9	4.5	4.5	6.9
18: COc1ccc2c(c1)c(C(=O)CN1CCN(Cc3ccccc3)CC1)c(C)n2C
 : -5.2%[15.4 µM]	3.0%	-22.0	-8.9	-1.3	-0.3
19: CCOc1ccc(/C=C/C(=O)NCCc2ccc(OC)c(OC)c2)cc1
 : ?	-2.3%	-5.7	-7.1	0.8	-6.9
20: COc1cc(/C=N/NC(=O)CSc2cc(C)c(Br)cc2C)ccc1O
 : 6.0%	-29.8%	-3.9	-0.7	1.8	-3.8
21: CCCS(=O)(=O)NC(=O)C1(C)CCN(C(=O)c2ccc3ccccc3n2)C1 (configuration not stated)
 : /	/	-4.3	18.8	-6.0	6.2
22: COc1ccc(CCNC(=O)Nc2ccc(F)cc2F)cc1OC
 : ?	7.2%	-3.5	2.2	5.7	-0.3
23: COc1ccc(C2=NOC(C(=O)N3CCN(c4ccccc4OC)CC3)C2)cc1 (configuration not stated)
 : -29.0%	-12.5%	2.0	2.7	2.0	2.0
24: Cc1ccc(-c2csc3ncnc(Oc4cccc5ccc(C)nc45)c23)cc1
 : -28.6%	-8.3%	-4.9	-17.9	-8.4	/
25: CCCn1c(SCc2ccon2)nc2ccccc2c1=O
 : -17.8%	-3.4%	-0.6	13.2	-5.3	7.5
26: O=C(CCCN1C(=O)NC2(CCCC2)C1=O)Nc1cccc(S(=O)(=O)N2CCOCC2)c1
 : 6.1%	5.2%	-10.2	6.7	-1.0	-19.9
27: Cc1cc2nc(C)n(CCCN)c2cc1C
 : -23.3%	7.8%	-13.9	6.0	-3.1	-2.7
28: COc1cc(OC)c(NC(=O)CCc2nc(-c3ccc(C)cc3)no2)cc1Cl
 : -8.5%	?	-2.6	-1.8	-6.5	4.1
29: COc1ccc(S(=O)(=O)Nc2cccnc2)c(Cl)c1Cl
 : -4.7%[15.4 µM]	3.3%	6.9	4.2	0.7	-2.4
30: O=C(O)c1cccc(-c2ccc(/C=c3/sc4nc5ccccc5n4c3=O)o2)c1
 : ?	-17.2%	-7.8	-23.3	2.6	/

Looked up above.
#23 in CtBP-E1A inh: 2.0
#7 in gsp ag: -10.0%[15.4 µM]

Following part.
Order of results – gsp ag	gsp antagonist	D2 potentiator	Six1-Eya2 blk	D2 ag	CtBP-E1A inh
31: COCCN(Cc1nc(C(c2ccccc2)c2ccccc2)no1)C(C)C
 : -22.6%	-8.4%	0.6	9.7	3.6	6.7
32: COc1ccccc1NC(=O)/C=C/c1cc([N+](=O)[O-])ccc1OC(F)F
 : 11.7%	9.9%	3.1	-1.9	2.6	-0.6
33: CSCCC(NS(=O)(=O)c1c(Cl)cccc1Cl)C(=O)O (configuration not stated)
 : 8.9%	12.1%	2.4	8.6	-1.5	-21.9
34: N#CCc1ccc(NC(=O)CSc2nnc(C3CC3)n2C2CC2)cc1
 : -16.1%	-4.0%	-1.5	-1.1	0.1	2.4
35: CC1CC(NC(=O)/C(C#N)=C/c2ccc[nH]2)CC(C)(C)C1 (configuration not stated)
 : -67.7%[inhibitor]	-4.4%	-4.6	4.6	5.5	-1.0
36: CCOC(=O)Cc1nn(CCc2ccccn2)c(=O)c2ccccc12
 : ?	-7.3%	8.8	-1.5	3.6	5.8
37: CCN1CCN(Cc2ccc(NC(=O)Nc3ccccc3Cl)cc2)CC1
 : -18.1%	-2.9%	-4.3	1.4	-2.4	-1.6
38: Cc1[nH][nH]c(=O)c1C(c1ccc(-c2cccc(Cl)c2)o1)c1c(C)[nH][nH]c1=O
 : -0.1%[15.4 µM]	-8.6%	-4.4	2.1	-3.7	-17.6
39: CCN(CC(=O)NC1CCS(=O)(=O)C1)S(=O)(=O)c1ccccc1Cl (configuration not stated)
 : -57.3%[inhibitor]	5.4%	-7.7	2.5	0.4	3.7
40: COC(=O)c1cc(OC)c(OC)cc1NCC(=O)Nc1ccc(C)cc1
 : -5.6%	-3.4%	-38.8	-11.5	-0.9	-13.8
41: O=C(Nc1cccc2ccccc12)c1cccc(F)c1
 : -19.2%[15.4 µM]	-2.4%	-7.6	-0.8	3.3	8.7
42: COc1ccc(-n2c(C)n[nH]c2=O)cc1
 : 9.0%	7.8%	2.0	19.6	-2.1	-1.9
43: NS(=O)(=O)c1ccc(CNC(=O)c2ccccc2SCC(=O)N2CCCC2)cc1
 : 1.8%	12.4%	-16.4	11.4	-0.4	-23.9
44: COCCNC(=O)c1ccc2c(c1)C(=O)c1ccccc1-2
 : -9.1%	5.8%	-11.0	-2.0	-5.0	/
45: COC(C[C@@H]1O[C@H]1C(=O)[C@@H](C)OCc1ccccc1)OC
 : /	15.4%	-7.8	4.2	-2.4	1.2
46: Cc1ccc(-c2[nH]c3ccccc3c2C(C[N+](=O)[O-])c2ccco2)cc1 (configuration not stated)
 : 28.6%	-7.1%	-18.7	-15.2	2.1	-12.3
47: COc1ccc(C(=O)N=c2nc3ccccn3s2)cc1
 : 6.0%	11.4%	5.9	-0.4	-1.2	0.5
48: O=C(NC(=S)Nc1ccc(Oc2ccc(Cl)cc2)cc1)c1ccccc1
 : 23.3%	7.1%	-5.7	-15.7	-2.0	-0.1
49: CCN(CC)C(=O)Cn1cc(C(=O)C(=O)N(CC)C2CCCCC2)c2ccccc21
 : -51.4%[inhibitor]	-1.4%	1.0	1.9	-3.4	10.5
50: CCC(=O)Nc1ccc(NC(=S)NC(=O)/C=C/c2ccccc2)cc1
 : -12.3%	-3.6%	-8.3	1.9	-0.3	-5.9
51: O=C1OC(c2ccccc2)(c2ccc(O)cc2)c2ccccc21 (configuration not stated)
 : 2.9%	-7.1%	-2.3	-12.7	-0.7	-14.4
52: O=C(Nc1ccc(C(=O)N2CCCCC2)cc1)c1cccc([N+](=O)[O-])c1
 : 0.1%	-19.8%	-15.9	10.0	-3.5	15.3
53: O=C1C2C(c3ccccc3)C=CC(c3ccccc3)C2C(=O)N1CCCO (configuration not stated)
 : 12.0%	-6.9%	-11.7	-6.6	-3.0	2.1
54: C=CCn1c(CCNC(=O)c2cccs2)nnc1SCC(=O)c1ccc(Br)cc1
 : -13.0%	-1.8%	-6.5	-2.8	-0.9	0.5
55: COc1ccccc1C(=O)Nc1nnc(C)s1
 : 0.1%	9.1%	-7.2	-3.6	-1.0	4.4
56: Cc1nc(=O)c(-c2ccccc2)c(C)n1CCO
 : 26.0%	13.8%	1.9	9.8	0.5	-5.9
57: O=C(c1ccco1)N1CCN(C(=O)c2ccc(-c3ccc(Cl)cc3)o2)CC1
 : 2.4%	?	6.6	-0.1	3.7	-1.6
58: OCC1OC(n2ccc3c(SCc4ccccc4)ncnc32)C(O)C1O (configuration not stated)
 : -30.4%	12.1%	-5.5	-5.0	1.8	-0.1

Another view of part of the listing above:
no. | Structure | gsp ag | gsp antagonist | D2 potentiator | Six1-Eya2 blk | D2 ag | CtBP-E1A inh
1 | COC(=O)c1ccccc1NC(=O)CSc1nnc(-c2cccnc2)n1N | -5.4%[15.4 µM] | 4.7% | -1.5 | 8.4 | -2.3 | 0.0
2 | Cc1cc2c(cc1S(=O)(=O)NCC(C)c1ccccc1)n(C)c(=O)c(=O)n2C (configuration not stated) | ? | -1.0% | -0.2 | 0.3 | 2.2 | 1.4
3 | Nc1c(-c2ccc(Cl)cc2)cnn1-c1ccccc1 | -61.7%[inhibitor] | 0.9% | -10.0 | 3.8 | 2.4 | 7.0
4 | CCOC(=O)C1=C(CN2CCOCC2)NC(=O)NC1c1cc(C)ccc1C (configuration not stated) | -11.4% | -11.4% | -5.2 | -0.1 | -0.7 | 2.9
5 | O=C(Nc1ccc(Cc2ccc(NC(=O)Nc3cccnc3)cc2)cc1)Nc1cccnc1 | -33.8%[inhibitor] | / | -1.0 | -3.3 | -3.3 | 4.0
6 | O=C(N/N=C/c1ccccc1)c1ccc(-c2ccccc2)cc1 | -18.3% | -11.8% | -1.4 | 3.4 | 2.9 | 0.2
7 | Cc1cccc(NC(=O)CSc2nnc(NC(=O)C3CCC3)s2)c1 | -10.0%[15.4 µM] | -9.1% | -4.1 | -0.7 | 1.1 | 6.2
8 | Cc1ncc([N+](=O)[O-])n1Cc1ccc(Cl)cc1 | ? | -12.3% | -5.0 | -0.1 | -1.4 | -2.8
9 | CCCCOC(=O)c1ccc(NC(=O)COC(=O)CN2C(=O)NC3(CCCC3)C2=O)cc1 | 22.3%[15.4 µM] | -7.1% | -7.0 | -4.5 | 0.2 | -3.2
